Lassa entry – blocks Lassa virus binding or cell entry. Lassa virus pseudotyped entry inhibition, cell-based qHTS; control for the full effect not named in the record; many of its hits are not listed in these tables. Potency, µM (series often up to 49.2 µM), inactives show at the top dose activity change, negative = inhibition, most hits filed as inhibitors. actives 4.1% (n = 18,000). AID 720533; active = well fitted inhibition curve with a large enough effect; inconclusive = small, poorly fitted or top-dose-only effect; inactive = no such curve, though single readings can be large or run the other way; tested in HEK293 cells; further: luciferase read-out
Marburg entry – inhibitors of Marburg virus binding or entry into cells; Marburg virus pseudotype entry/binding inhibition, cell-based; control for the full effect not named in the record; many of its hits are not listed in these tables; Potency, µM (top dose mostly 49.2 µM), for the others: top-dose activity change, negative = inhibition, actives largely listed as inhibitors; actives 6.5% (n = 18,000); active means well fitted inhibition curve with a large enough effect; inconclusive means small, poorly fitted or top-dose-only effect; inactive means no such curve, though single readings can be large or run the other way; tested in HEK293 cells; further: luciferase read-out
* = called active by the depositor; ? = inconclusive; / = not tested or not shown; & = joins results of further samples; ! = repeats disagree; [ ] = remark or other dose. On the % scale 0 is the no-effect control and ±100 the full control effect; potency means the concentration at half of the fitted maximal effect. Outcome played no part in choosing rows. Share with any hit: about 7.3%.

smiles	Lassa entry	Marburg entry
CSCC[C@H](NC(=O)[C@H](CCC(N)=O)NC(=O)[C@H](CCCCN)NC(=O)[C@H](CCCNC(=N)N)NC(=O)[C@H](Cc1ccc(O)cc1)NC(=O)[C@H](CCCNC(=N)N)NC(=O)[C@H](CO)NC(=O)[C@H](Cc1ccc(O)cc1)NC(=O)[C@H](CO)NC(=O)[C@H](CC(=O)O)NC(=O)[C@@H](NC(=O)[C@@H](N)Cc1ccccc1)[C@@H](C)O)C(=O)N[C@@H](C)C(=O)N[C@H](C(=O)N[C@@H](CCCCN)C(=O)N[C@@H](CCCCN)C(=O)N[C@@H](Cc1ccc(O)cc1)C(=O)N[C@@H](CC(C)C)C(=O)N[C@@H](C)C(=O)N[C@@H](C)C(=O)N[C@H](C(=O)N[C@@H](CC(C)C)C(=O)NCC(=O)N[C@@H](CCCCN)C(=O)N[C@@H](CCCNC(=N)N)C(=O)N[C@@H](Cc1ccc(O)cc1)C(=O)N[C@@H](CCCCN)C(=O)N[C@@H](CCC(N)=O)C(=O)N[C@@H](CCCNC(=N)N)C(=O)N[C@H](C(=O)N[C@@H](CCCCN)C(=O)N[C@@H](CC(N)=O)C(=O)N[C@@H](CCCCN)C(N)=O)C(C)C)C(C)C)C(C)C	-4%	-22%
CN1[C@@H](C[C@@H](O)c2ccccc2)CCC[C@@H]1C[C@H](O)c1ccccc1	8%[17.8 µM]	?
COC1=C[C@H](C(=O)NCc2ccc(Br)cc2)C(C)C(c2ccccc2)CC1=O (stereo partly specified)	4%[8.59 µM]	15%[8.59 µM]
COc1ccc(CN2CCCC(n3cc(C(=O)N4CCCCC4)nn3)C2)c(OC)c1C (stereo unspecified)	-2%	-1%
O=C(NCC1(N2CCOCC2)CCCC1)c1cnn(-c2nccc(-c3ccco3)n2)c1C1CC1	-17%	0%
CN(C)Cc1ccccc1-c1ccc2ncnc(NCc3ccccc3)c2c1	0%	?
COc1ccc(O[C@H]2C=C[C@@H](c3ccccc3)O[C@H]2COC(=O)CCC(C)=NOCC[C@@H]2C=C[C@H](OC(C)=O)[C@@H](COC(C)=O)O2)cc1	5%[8.59 µM]	33%[activator][8.59 µM]
Cc1c(O)c(=O)ccn1Cc1ccccc1	-27%[8.59 µM]	-14%[8.59 µM]
Cn1nnnc1SCC1=C(C(=O)O)N2C(=O)C(NC(=O)C(OC=O)c3ccccc3)C2SC1 (stereo unspecified)	6%	4%
Cc1cnc(CNc2ncncc2-c2ccc(C(=O)N(C)C)cc2)cn1	-11%	-16%
COc1cc(C/C=C\c2ccccc2)c(OC)cc1O	-20%	-8%
CCCCC/C=C\C/C=C\C/C=C\CCCCCCC(=O)NCC(=O)O	-2%	-8%

The closing 3 compounds of the section above open the next one:
smiles	Lassa entry	Marburg entry
Cc1cnc(CNc2ncncc2-c2ccc(C(=O)N(C)C)cc2)cn1	-11%	-16%
COc1cc(C/C=C\c2ccccc2)c(OC)cc1O	-20%	-8%
CCCCC/C=C\C/C=C\C/C=C\CCCCCCC(=O)NCC(=O)O	-2%	-8%
Cc1cc(C)c2c(CN3CCCCC3)cc(=O)oc2c1	1%	44%[activator]
Cc1ccc([S+](=O)([O-])N(c2ccccc2)[S+](=O)([O-])C(F)(F)F)cc1	-12%	3%
O=c1cc(-c2ccccc2)oc2c(O)c(O)ccc12	-19%	?
COc1ccc2c(c1)O[C@H](c1ccc3c(c1)OCO3)[C@@H](OC(=O)NCc1ccc3c(c1)OCO3)C2=O	2%	-26%
COc1ccc2[nH]cc(CCNc3ncnc4ccc(-c5ccccc5CN(C)C)cc34)c2c1	-2%	10µM*
COc1ccc2[nH]cc(CCNc3ncnc4ccc(-c5ccccc5C#N)cc34)c2c1	?	-3%
COCCN1C(=O)N[C@@H](CCc2ccccc2)C(C(C)=O)=C1C	-4%	7%
COc1ccccc1CN1CCCC(n2cc(C(=O)N3CCCCC3)nn2)C1 (stereo unspecified)	7%	0%
O=C(CN1Cc2ccccc2OC(c2ccccc2)C1)N1CCCCC1c1cccnc1 (stereo unspecified)	-17%	?
O=S1(=O)CC(N2CC=CC2)CN1Cc1cn(Cc2ccc(C(F)(F)F)cc2)nn1 (stereo unspecified)	7%	18%
COC(=O)C(C(C)=O)[C@@H](NC(=O)NCc1ccccc1)c1ccccc1 (stereo partly specified)	15%[8.59 µM]	25%[8.59 µM]
Cc1ccccc1-c1cnc(-c2ccncc2)nc1C1CCCN(Cc2ccccc2O)C1 (stereo unspecified)	-28%	?

(more compounds)
smiles	Lassa entry	Marburg entry
COC(=O)c1cccc(C(=O)NCc2nc(-c3ccccc3NC(C)=O)oc2C)c1	-13%	-8%
COC1=CC2C(=O)C([C@@H]3c4ccccc4C[C@]23C)C1(O)c1cccc(OC)c1 (stereo partly specified)	-1%[8.59 µM]	4%[8.59 µM]
COCC(=O)Nc1cc(C(=O)NC2CCCc3ccccc32)c2c(c1)nc(-c1ccncc1)n2C (stereo unspecified)	-2%	11%
O=c1cc(-c2ccc(O)cc2)oc2cccc(O)c12	15%	2%
CC(NC(=O)c1cccnc1)c1nnc2n1CCN(Cc1ccc(F)cc1F)CC2 (stereo unspecified)	-12%	-24%
COc1cccc(CN2CCCC(c3nc(C)ncc3-c3ccc(F)cc3)C2)c1OC (stereo unspecified)	-16%	?
CCCN1CC[C@@H]2c3cc(O)ccc3CC[C@@H]21	-14%	-2%
CC[C@H](C)[C@H](NC(=O)[C@H](Cc1ccc(O)cc1)NC(=O)[C@@H](NC(=O)[C@H](CCCN=C(N)N)NC(=O)[C@@H](N)CC(=O)O)C(C)C)C(=O)N[C@@H](Cc1cnc[nH]1)C(=O)N1CCC[C@H]1C(=O)N[C@@H](Cc1ccccc1)C(=O)O	-3%	3%
C=CCOC(=O)N[C@H](c1ccc2ccccc2c1)[C@H](C)C=CCC(=O)OC	/	-4%[8.59 µM]
COC(=O)C(CN)c1c[nH]c2ccc(OC)cc12 (stereo unspecified)	5%	7%
N#Cc1ccc2c(c1)C[C@]1(c3ccsc3)Oc3c(c(=O)oc4ccc(F)cc34)[C@@H]2O1	-3%[8.59 µM]	2%[8.59 µM]
COC1C(O)C(CO)OC1n1cnc2c(=O)[nH]c(N)nc21 (stereo unspecified)	5%	-10%

Continuation:
smiles	Lassa entry	Marburg entry
C=CC[C@@](C(C)=O)(C(=O)OC)[C@@H](NC(=O)OC)c1ccccc1	-15%[8.59 µM]	-3%[8.59 µM]
CO[C@H]1[C@H](NC(=O)c2ccsc2)c2ccccc2C12CCN(Cc1cc3ccccc3o1)CC2	?	?
O=C(NCC1CCC2(CCN(Cc3cnn(-c4ccc(F)cc4)c3)CC2)O1)c1ccccc1 (stereo unspecified)	-13%	0%
CCNC(=O)c1sc2ncnc(NCCCN3CCOCC3)c2c1C	-10%	3%
Cc1ccccc1-c1ccccc1CN1[C@@H](C(C)C)COCCS1(=O)=O	14%	25%
CCCCCCCCCCCCCC(=O)N[C@H](C)[C@@H](O)c1ccccc1	3%&10%	15%&26%
c1ccc2cc(C3=NCCN3)ncc2c1	-6%	?
CCOP(=S)(OCC)OCCSCC	-7%	14%
CC(C)(O)[C@@H]1CCC[N+]2(C)CCCC[C@H]12 (stereo partly specified)	-1%	8%
COCC1CCCN(Cc2ccc3c(c2)CN(C(=O)c2ccc(OC)nc2OC)CCO3)C1 (stereo unspecified)	-5%	?
COc1ccc([C@H]2C[C@@H](n3cc(-c4ccc(F)cc4)nn3)[C@H](O)CN2Cc2cccs2)cc1	-27%	?
Cc1ccc2c(Cl)cc(Cl)c(O)c2n1	?	6.3µM*!

Following part
smiles	Lassa entry	Marburg entry
COc1cc2c(C=O)c3c4c(cc(OC)c(OC)c4c2cc1OC)CCN3C	16µM*	?
Cc1ccc2cc(CNC(C)CO)c(N3CCC(O)CC3)nc2c1 (stereo unspecified)	-13%	48%[activator]
CN(C)CCN1CCN(C2CN(Cc3ccccc3)S(=O)(=O)C2)CC1 (stereo unspecified)	8%	19%
C/C=C(/C)C(=O)OC1CC[C@]2(C)C3CCC4[C@]5(O)CC(O)[C@]6(O)C(CN7CC(C)CCC7[C@]6(C)O)[C@]5(O)C[C@@]42O[C@]13O (stereo partly specified)	9%	-10%
COc1cccc([C@@H]2Oc3ccc(OC)cc3C[C@@H]2OC(=O)N[C@H]2CCCc3ccccc32)c1	-1%[8.59 µM]	3%[8.59 µM]
Cc1ccc(O)cc1Nc1ccnc2ccc(S(C)(=O)=O)cc12	/	?
Nc1ccc(CCN2CCN(c3cccc(C(F)(F)F)c3)CC2)cc1	?	-14%
O=S1OCC2C(CO1)C1(Cl)C(Cl)=C(Cl)C2(Cl)C1(Cl)Cl (stereo unspecified)	0%	-8%
Cc1cc(C(=O)NCC2CCC3(CCN(Cc4ccc(F)cc4)CC3)O2)n(C)n1 (stereo unspecified)	7%	-24%
C[C@@H]1COc2cccc(N3CCCC3)c2S(=O)(=O)N1	0%	52%
CCN1C[C@]2(C)CC[C@H](O)[C@@]34C5C[C@@H]6[C@@H](OC)C[C@@](O)(C5[C@H]6O)[C@@H](CC23)[C@@H]14 (stereo partly specified)	11%&6%	13%&7%
COc1ccccc1[C@@H]1C(c2cccc(C)c2)=NN(c2ccc(Br)cc2)[C@H]1C(=O)N1CCOC1=O	8%	-10%

Remaining list, next part:
smiles	Lassa entry	Marburg entry
CNC(=O)C[C@H]1C(=O)N(C2CCCCC2)C[C@@H]1CSC	13%	?
CCN(CC)CCOCCOC(=O)C(CC)(CC)c1ccccc1	?	22µM*
COc1cc(CN2CCOc3ccc(CN4CCC(O)(c5cccnc5)CC4)cc3C2)cc(OC)c1	-18%	11µM*
CCn1c(-c2nonc2N)nc2c(C#CCN)ncc(OCCCN)c21	15%	?
Cc1cc(=O)oc2cc(NC(=O)[C@H](CCCCN)NC(=O)[C@H](CC3CCCCC3)NC(=O)OCC3c4ccccc4-c4ccccc43)ccc12	?	10µM*
CCCCCCCCCCCCCCOS(=O)(=O)O	-3%	5%
COc1cc2c(Cc3c4c5c(cc(OC)c(OC)c5c5c(OC)c(OC)ccc35)CCN4C)c3c4c(cc(OC)c(OC)c4c2cc1OC)CCN3C	-22%	-6%
Cc1ccc(CN2C[C@H](Sc3ccccn3)C[C@H]2C(=O)Nc2ccc3sc(C)nc3c2)cc1	-13%	?
C[C@@H]1[C@H]2Cc3ccc(O)cc3[C@]1(C)CCN2C	-5%[107 µM]	?
Clc1ccc(C2=CCC[C@H]3CC[C@@H]2N3)cn1	3%	23%
COc1ccc2c(c1)C(c1ccc(C)cc1)CC(=O)O2 (stereo unspecified)	-15%	?
C[C@@H]1CN(Cc2ccc3c(c2)CN(Cc2coc4ccccc4c2=O)CCO3)C[C@H](C)O1	-6%	-30%

(further entries)
smiles	Lassa entry	Marburg entry
CC1(C(=O)O)NCCc2cc(O)c(O)cc21 (stereo unspecified)	3%	-22%
COc1cc(O)c2c(=O)cc(C)oc2c1CC=C(C)C	-1%&4%	12%&8%
C[C@@H]1OC(OC2CC[C@@]3(C)C(CC[C@@]4(C)C3CC=C3C5CC(C)(C)CC[C@]5(C(=O)OC5OCC(O)[C@@H](O)[C@@H]5OC5O[C@@H](C)[C@H](O[C@H]6OC(CO)C(O)C(O)C6O)C(O)C5O)C(O)C[C@@]34C)C2(C)C)C(O)C(O)[C@H]1OC1OCC(O)C(O)[C@H]1O (stereo partly specified)	11µM*	?
c1ccc2c(c1)CC(N1CCN(c3cccc4c3OCCO4)CC1)C2	1%	-7%
C=CCOC(=O)N[C@H](C[N+](=O)[O-])c1ccccc1	-12%	?
COC(=O)NC(=S)Nc1ccccc1NC(=S)NC(=O)OC	-12%	-20%
CC(=O)Oc1cc2c(s1)CCN(C(C(=O)C1CC1)c1ccccc1F)C2 (stereo unspecified)	-8%	-19%
COC(=O)C1=C(C)N(Cc2ccccc2)C(=NCCc2ccc([N+](=O)[O-])cc2)NC1c1cccc(F)c1 (stereo unspecified)	35%[activator][8.59 µM]	9%[8.59 µM]
CC1=CC(=O)CC(C)(C)C1(O)/C=C/C(C)=C/C(=O)O (stereo unspecified)	3%	-16%
Cc1ccc2c(c1)C1(CCN(CCc3nc(-c4ccccc4)oc3C)CC1)OC(=O)N2	13µM*	?
CC(=O)C1=CN(CCC=Cc2ccccc2)C(=O)NC1c1ccccc1 (stereo unspecified)	-20%[8.59 µM]	?
Cc1ccc([C@H]2C[C@@H](n3cc(COC(=O)c4ccccc4)nn3)[C@H](O)CN2C(=O)C2CCCCC2)cc1	?	?

(cont.)
smiles	Lassa entry	Marburg entry
O=P(O)(O)C(O)c1ccc2ccccc2c1 (stereo unspecified)	-22%	18%
COC(=O)C1=C(C(=O)OC)[C@@H]2N(Cc3ccccc3)c3ccccc3[C@@]23C[C@@H](CO)N=C3N1	-10%[8.59 µM]	-1%[8.59 µM]
CCCC=Cc1ccc(CN2C(CC(C)C)C(=O)N(Cc3cn(CCC4OCCO4)nn3)CCS2(=O)=O)cc1 (stereo unspecified)	3%	?
COc1ccc(/C=C/C(=O)c2ccc(C)s2)cc1	9%	55%[activator]
COCCN(C(=O)CCl)c1c(C)cccc1C	-13%	-31%
CCOC(=O)[C@@H]1CSCCS(=O)(=O)N1C(=O)c1ccc(Br)cc1	10%	13%

Screening results: PubChem BioAssay, National Center for Advancing Translational Sciences (NCATS)
